# ALR inh: inhibitors of human sulfhydryl oxidase ALR. P55789. purified ALR, DTT oxidation, H2O2 HRP-luminol luminescence. inhibition, % (test concentration not listed). 290,000 tested, 3.8% active;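 active = mean and each replicate at 75% or more; inconclusive = only one of the two met; inactive = neither met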;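 note: stock transfer was 7.5 nL into about 7.5 µL; 0% = neutral wells and 100% = wells with inactivated enzyme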
# Target sequence (P55789 whole entry, looked up): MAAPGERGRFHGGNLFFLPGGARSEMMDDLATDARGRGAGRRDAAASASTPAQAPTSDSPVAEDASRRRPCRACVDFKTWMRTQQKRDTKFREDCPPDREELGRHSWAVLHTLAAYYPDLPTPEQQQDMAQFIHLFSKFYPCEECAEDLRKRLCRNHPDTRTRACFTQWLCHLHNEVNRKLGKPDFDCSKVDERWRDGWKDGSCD
# T cruzi repl: T. cruzi replication inhibition; T. cruzi beta-gal in NIH3T3, luminescence, 90 h; inhibition, % (no concentration beside the values); 300,000 tested, 1.4% active; AID 1885;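 active = mean inhibition across valid replicates above about 55%, limit read from the data; inconclusive = mean below that limit but half or more replicates reach it; inactive = mean below it, under half of replicates reach it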;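 note: signal also drops with host cell toxicity which is not excluded here; 0% = plate median of DMSO wells and 100% = zero luminescence signal; higher percent means less beta-gal luminescence so fewer parasites; stock transfer was 50 nL into about 50 µL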
# LANA-H2A inh: blocks KSHV LANA binding to histone H2A/H2B | inhibition, % (no concentration beside the values) | Q9QR71 | cell-free LANA-H2A/H2B peptide, fluorescence polarization | 320,000 tested, 0.6% active; in the data active = inhibition mostly above about 10%, no sharp cut-off; inactive = mostly below about 6.7%;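 note: stock transfer was 7.5 nL into about 10 µL; 0% = median of vehicle wells and 100% = median of positive control wells; one replicate is shown; the record names a cut of 25% in any replicate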
# Beta2AR agonist: agonists of human beta-2 adrenergic receptor inducing internalization; P07550; AID 504454; Am2.2-beta2AR cells, FAP receptor internalization, flow cytometry; reference of the scale not given here; 340,000 tested, 0.43% active; response, % (test concentration not listed);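 active = response above a set limit, near 3 SD of response in nonfluorescent compounds, cut at about 42% in these data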;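 note: stock transfer was 100 nL into about 11 µL; a reference agonist was the positive control; negative values mostly stem from fluorescent compounds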
# Target sequence (P07550 whole entry, looked up): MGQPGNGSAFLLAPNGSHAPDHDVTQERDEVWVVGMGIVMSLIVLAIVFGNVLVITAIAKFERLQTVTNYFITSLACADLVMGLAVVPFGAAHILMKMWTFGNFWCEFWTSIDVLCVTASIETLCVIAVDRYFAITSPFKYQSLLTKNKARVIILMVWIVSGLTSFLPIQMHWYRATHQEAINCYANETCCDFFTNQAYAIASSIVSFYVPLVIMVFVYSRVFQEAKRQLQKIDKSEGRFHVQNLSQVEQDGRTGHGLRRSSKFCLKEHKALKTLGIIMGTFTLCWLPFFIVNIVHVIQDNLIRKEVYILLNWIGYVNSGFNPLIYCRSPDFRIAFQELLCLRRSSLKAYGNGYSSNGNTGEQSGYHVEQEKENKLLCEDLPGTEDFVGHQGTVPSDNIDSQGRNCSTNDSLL
# Bfl-1 A1 inh: inhibitors of the anti-apoptotic protein A1, read as caspase activation; MEF A1-2A-BIM cells, Caspase-Glo 3/7 luminescence, 3 h; percent of clofoctol response, vehicle zero; caspase activation, % (no concentration beside the values); 330,000 tested, 0.066% active; AID 2462;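 active = over half of replicate activation scores above 10%, or exactly half above 10 with the replicate mean above 10; inconclusive = replicate mean below 10 yet half the replicates above 10; inactive = over half of replicates below 10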;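 note: wells of about 30 µL received 50 nL stock; many hits fall short of the cut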
# rRNA inh HTS: selective bacterial rRNA inhibition in E. coli; E. coli WT GFP vs humanized-ribosome RFP mutants, fluorescence, 24 h; hits give low values; DMSO median 0, no signal -100; 350,000 tested, 1.6% active; GFP signal change (wild-type ribosome), % (concentration not given with the values);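 active = significant combined selectivity score with lowered wild-type GFP, culture density cut under 30%, mutant RFP and density less affected; inactive = any of these conditions unmet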; note: one replicate is shown; some compounds called inactive have numbers as strong as hits
# Beta apoptosis: blocks beta cell apoptosis; INS-1E cytokine-induced death, ATP luminescence, 48 h; percent of positive-control rescue, neutral wells zero; protection from apoptosis, % (no concentration beside the values); 300,000 tested, 0.8% active;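 active = all replicates at 75% or more, or half of them and the mean; inconclusive = half reach 75% but not the mean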;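 note: 0% = cytokine-treated negative control wells and 100% = positive control rescue; higher means more ATP so stronger rescue from cytokine killing; wells of about 40 µL received 100 nL stock; the first replicate is given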
# Calb FLC: C. albicans growth modulation with fluconazole. C. albicans CaCi-2 (fluconazole-resistant clinical isolate) + fluconazole, Alamar Blue growth, 48 h. 300,000 tested, 0.57% active. growth inhibition, % (concentration not given with the values);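 active = most replicates above 75%; inconclusive = exactly half above 75%; inactive = most below 75%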;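 note: all wells also contain fluconazole at 8 µg/ml as a sub-toxic cotreatment; 0% = median of DMSO wells and 100% = median of geldanamycin control wells; wells of about 8 µL received 7.5 nL stock; the first replicate is given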
# rRNA inh HTS OD600: further read-out of rRNA inh HTS, marked with its call; OD600 change, %; measured here: OD600 growth;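 optical density of the mix in the first replicate; 0 = DMSO median and -100 = no signal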
# rRNA inh HTS RFP: second read-out of rRNA inh HTS, no call of its own (marks repeat the call); RFP signal change, %; measured here: RFP humanized mutant strains;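 first replicate; 0 = DMSO median and -100 = no signal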
# * hit, by the source's call; ? = inconclusive; . = not tested or not shown. Only part of the results is shown, so the mix of outcomes need not match the whole.
# Sequence of screens – ALR inh	T cruzi repl	LANA-H2A inh	Beta2AR agonist	Bfl-1 A1 inh	rRNA inh HTS	rRNA inh HTS OD600	rRNA inh HTS RFP	Beta apoptosis	Calb FLC
C=CCN1C2CCCC1CC(NC(=O)Nc1cc(C)cc(C)c1)C2 (configuration not stated)
  6	20	-3.8	-2	0.7	12	6	5.9	.	51
CS(=O)(=O)Oc1ccc2c(c1)O/C(=C\C=C\c1ccccc1)C2=O
  -4	17	-0.1	1	-1.1	30	21	7.0	22	34
CN(C)S(=O)(=O)c1ccc(S(=O)(=O)N(CC(=O)Nc2ccccc2)Cc2ccco2)cc1
  4	4	2.5	-1	0.9	.	.	.	-1	5
Cn1c(CCC(=O)OCC(=O)NCc2ccccc2Cl)nc(=O)c2ccccc21
  -3	-2	-2.4	-161	0.8	12	11	1.4	.	-23
COC(=O)c1cn(C(=O)/C=C/c2ccc(OC)c(OC)c2)c2ccccc12
  8	-13	-2.4	1	0.1	-8	-6	-2.3	5	0
CCOc1ccccc1OCCCOc1ccc(C)cc1Cl
  -6	13	1.3	-10	0.5	.	.	.	10	4
COc1ccc(-c2noc(C3CCCN(C(=O)CCc4ccccc4)C3)n2)cc1 (configuration not stated)
  -7	35	-0.1	5	0.3	.	.	.	-5	-16
COc1ccccc1NS(=O)(=O)c1cc(NC(=O)c2sccc2C)ccc1N1CCOCC1
  .	24	3.1	-4	0.1	0	-12	2.5	33	5
COc1ccc(N(CC(=O)O)S(=O)(=O)c2cccnc2)cc1
  3	3	3.3	-2	0.1	.	.	.	-4	-6
O=C(COC(=O)c1cc(=O)[nH]c2ccccc12)Nc1ccc(F)cc1
  -1	.	6.0	-5	-0.3	0	-5	-2.0	4	.
CCOC(=O)C1=C(C)N=c2s/c(=C3/C(=O)Nc4ccccc43)c(=O)n2C1c1ccc(C)cc1 (configuration not stated)
  13	50	-2.0	-4	0.9	.	.	.	0	-1
C=CCNc1nc(N2CCCC2)nc2ccccc12
  -1	27	4.7	-10	-0.3	.	.	.	14	-1
c1n[nH]c(NCc2ccc3c(c2)OCO3)n1
  -20	3	-5.9	-1	0.0	.	.	.	-7	-4
Nc1ccc(C(=O)OCCCc2nc3cc4ccccc4cc3[nH]2)cc1
  -3	-5	-0.4	6	0.4	-17*	-5.4*	5.8*	-1	1
COc1ccc(S(=O)(=O)N(C)c2ccc(C(=O)N3CCOCC3)cc2)cc1OC
  -6	-11	11	-8	0.5	1	-1	1.2	1	-2
NNC(=O)Cn1c(-c2nonc2N)nc2ccccc21
  0	-10	-5.4	0	0.6	1	7	1.2	-9	-1
COc1cc(-c2nc(S(=O)(=O)c3ccc(C)cc3)c(N(C)C)o2)cc(OC)c1OC
  -1	13	3.0	6	0.6	.	.	.	2	0
COc1ccccc1CNC(=O)CCC(=O)n1ncc2cc(C)ccc21
  -9	-16	-2.9	7	.	10	9	-0.8	0	3
COc1ccc(NS(=O)(=O)c2ccc3c(c2)CCC(=O)N3)c(OC)c1
  -23	-11	-1.5	3	-0.2	7	4	-5.0	1	21
C/C=C/C(=O)N1c2ccccc2C(C)=CC1(C)C
  2	0	6.3	-3	-0.3	16	18	2.7	-4	2

# Reprinted at random: four entries already listed.
# Sequence of screens – ALR inh	T cruzi repl	LANA-H2A inh	Beta2AR agonist	Bfl-1 A1 inh	rRNA inh HTS	rRNA inh HTS OD600	rRNA inh HTS RFP	Beta apoptosis	Calb FLC
CCOC(=O)C1=C(C)N=c2s/c(=C3/C(=O)Nc4ccccc43)c(=O)n2C1c1ccc(C)cc1 (configuration not stated)
  13	50	-2.0	-4	0.9	.	.	.	0	-1
NNC(=O)Cn1c(-c2nonc2N)nc2ccccc21
  0	-10	-5.4	0	0.6	1	7	1.2	-9	-1
C=CCNc1nc(N2CCCC2)nc2ccccc12
  -1	27	4.7	-10	-0.3	.	.	.	14	-1
c1n[nH]c(NCc2ccc3c(c2)OCO3)n1
  -20	3	-5.9	-1	0.0	.	.	.	-7	-4

# (further entries)
# Sequence of screens – ALR inh	T cruzi repl	LANA-H2A inh	Beta2AR agonist	Bfl-1 A1 inh	rRNA inh HTS	rRNA inh HTS OD600	rRNA inh HTS RFP	Beta apoptosis	Calb FLC
CC(C)=C1C(=O)NN(c2ccc(F)c(Cl)c2)C1=O
  94*	3	1.9	-3	-0.4	-20	-20	20	-3	101*
COc1ccc(NC(=O)C(=O)NNC(=O)c2ccc(Cl)cc2Cl)cc1
  6	-22	-1.1	-5	0.0	13	10	3.1	0	?
CCn1c(=O)c(C(=O)NCc2ccccc2OC)c(O)c2ccccc21
  -6	-6	-5.2	-8	0.1	3	6	1.2	-4	-5
O=c1[nH]c(CN2CCOCC2)nc2cc(Cl)ccc12
  -3	-13	-0.4	-2	0.8	17	8	1.9	-8	-1
CC(=O)NC(CC(=O)NCCCn1ccc2ccccc21)c1ccccc1 (configuration not stated)
  -23	-4	8.2	-5	-0.2	0	0	-2.4	-3	1
Cc1nc2nc(Cc3ccccc3)[nH]n2c(=O)c1Cc1ccccc1
  4	.	-2.3	3	-0.5	.	.	.	1	.
Cc1c[nH]c2ccccc12
  -4	.	2.0	0	0.3	.	.	.	1	.
CCc1c(C)sc2nc(SCC(=O)Nc3cc(C)on3)n(CCOC)c(=O)c12
  -13	-6	5.0	-3	0.0	.	.	.	1	0
CCCn1c(C)cc(C)c(C#N)c1=O
  -2	-7	-5.7	10	-0.3	.	.	.	-6	13
CCOC(=O)C1=NN(C(=O)COc2ccccc2)C(O)(c2ccc(Cl)cc2)C1 (configuration not stated)
  26	-9	3.7	2	0.3	-12	-25	-4.2	2	-15
C=CCSc1nc(C)c(CC(=C)C)c(=O)[nH]1
  -6	-6	3.0	1	0.5	3	7	3.5	-5	-5
CCC(C(=O)Nc1cccc(S(=O)(=O)N(C)c2ccccc2)c1)c1ccccc1 (configuration not stated)
  -19	.	9.3	9	0.0	2	-38	-5.0	0	.
COc1ccc(C(=O)NCC(=O)OCC(=O)c2ccc3c(c2)NC(=O)CO3)cc1OC
  -6	-7	-12	7	0.0	16	12	5.1	-8	-32
O=C(NCc1cccnc1)c1sc2ccccc2c1Cl
  -4	12	-3.5	-20	2.0	-5	-16	0.2	0	2
COc1ccccc1OCc1ccc(C(=O)c2ccccc2)cc1
  -7	2	-2.1	-6	-0.7	3	5	0.3	1	4
COc1cc(OC)cc(C(=O)Nc2cccc(N3CCCC3)c2)c1
  -1	68*	1.9	-11	0.4	-9	-5	9.9	0	-19
COc1ccc(N2CCN(C(=O)COC(=O)COc3cccc(C(F)(F)F)c3)CC2)cc1
  59	.	-0.3	-3	-1.2	6	7	0.8	-1	.
Cc1ccc(NC(=S)NC(C)CCc2ccccc2)cc1C (configuration not stated)
  .	29	-127	-1	0.4	-48	-76	-29	6	-20
Clc1cccc(-c2cc3nc4c(c(N5CCOCC5)n3n2)CCCC4)c1
  -3	?	-1.1	-1	-0.7	.	.	.	2	20
CCOC(=O)Cn1cc(/C=N/NC(=O)c2ccc(C#N)cc2F)c2ccccc21
  -1	-9	-4.3	6	-0.4	.	.	.	-4	-12

# Looked up above:
# In rRNA inh HTS OD600, C=CCSc1nc(C)c(CC(=C)C)c(=O)[nH]1 reads 7
# In Calb FLC, Cc1ccc(NC(=S)NC(C)CCc2ccccc2)cc1C (configuration not stated) reads -20

# Continuation:
# Sequence of screens – ALR inh	T cruzi repl	LANA-H2A inh	Beta2AR agonist	Bfl-1 A1 inh	rRNA inh HTS	rRNA inh HTS OD600	rRNA inh HTS RFP	Beta apoptosis	Calb FLC
Cc1ccc(NC(=O)CCCn2c(=O)oc3ccccc32)c(O)c1
  6	-3	-0.5	23	2.7	9	3	8.6	5	0
O=S(=O)(c1ccc(Cl)cc1)N1CCC(N2CCCCCC2)CC1
  -2	11	-5.4	-5	-0.1	.	.	.	-10	-8
Cc1nc(C)c(-c2ccc(SCC(=O)Nc3ccccc3)nn2)s1
  -4	6	1.3	0	2.1	-4	-12	-0.2	-8	-7
Cn1c(SCc2ccc(F)cc2)nnc1-c1ccccn1
  -6	-5	0.8	-5	0.0	.	.	.	-4	-5
NC(=O)c1ccc(S(=O)(=O)N2CCSCC2)cc1
  0	4	-5.1	-5	0.2	6	8	5.9	-4	3
O=C(N/N=C/c1ccc(F)c(F)c1)c1cccc(S(=O)(=O)N2CCCCC2)c1
  .	.	3.8	-4	1.5	9	15	1.1	-5	.
Cc1sc(NC(=O)C2CCCCC2C(=O)O)c(C(N)=O)c1-c1ccc(C(C)(C)C)cc1 (configuration not stated)
  10	-34	-0.2	9	0.3	.	.	.	1	-5
C/C(CC(=O)Nc1cccnc1)=N\NC(=O)C(=O)Nc1cccc(C)c1
  16	-8	1.8	2	-0.3	10	4	-1.3	0	-2
O=[N+]([O-])c1cccc(Nc2c([N+](=O)[O-])ccc3nonc23)c1
  -6	31	2.0	8	-0.5	5	5	0.5	28	28
COc1cc(C(=O)NCCC(=O)NCc2ccc3c(c2)OCO3)cc(OC)c1OC
  -1	-12	-4.6	5	1.1	.	.	.	-2	4
CCCCCN(C(=O)CCC(=O)OCC(=O)N(C)C1CCCCC1)c1c(N)n(CCCC)c(=O)[nH]c1=O
  4	-2	-7.0	-5	-0.3	-5	-1	-0.2	1	-6
CCc1ccc(CN(C(=O)COc2c(C)cccc2C)C2CCS(=O)(=O)C2)cc1 (configuration not stated)
  -17	5	-0.6	2	-0.3	2	-4	-1.4	4	34
O=C(COC(=O)C1CCN(c2ccc(C(F)(F)F)cn2)CC1)c1cccc(Br)c1
  2	-9	-2.6	5	-0.3	2	8	-2.0	-3	0
COc1cc(/C=C/c2nc(-c3ccccc3O)n[nH]2)cc(OC)c1OC
  .	-1	-5.9	11	-0.1	.	.	.	8	2
O=c1oc2ccccc2c(N2CCCC2)c1CN1CCCC1
  .	-9	0.4	-10	0.3	-18*	-0.7*	0.2*	-5	15
O=C(NCc1ccco1)c1cc2n(n1)C(C(F)(F)F)CC(c1ccc(Br)cc1)N2 (configuration not stated)
  -12	2	-4.4	4	0.0	.	.	.	27	?
COc1ccccc1-n1c(C)c(C(=O)O)c2cc(OC)c3ccccc3c21
  0	-3	4.1	1	0.0	-5	1	-0.2	-6	27
Cc1ccc(-c2nc(N=Nc3ccc(O)cc3)n[nH]2)cc1
  58	-4	2.1	2	-0.7	.	.	.	-11	15
COC(C(=O)Nc1ccnn1C1CCN(C(=O)c2ccc(C)cc2)CC1)c1ccccc1 (configuration not stated)
  -2	-16	4.3	2	0.3	4	1	-4.2	6	1
CN(Cc1cnn(C)c1)C(=O)c1ccc(OC2CCN(CCc3ccccc3)CC2)cc1
  -5	-18	3.5	-11	0.5	11	12	3.0	3	-21
COc1ccc(C(=O)N2CCN(Cc3ccccc3[N+](=O)[O-])CC2)cc1
  -8	16	2.3	21	-0.3	-3	-1	1.2	-4	-16

# Bioassay records: PubChem, several laboratories
